Assay outcomes from PubChem.
S aureus helic: blocks Staphylococcus aureus DNA helicase. purified S. aureus helicase, fluorescence unwinding assay; about half of the hits fall short of the stated cut. AID 485395. 0.05% of 120,000 active. inhibition, %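 (tested at about 80 µM)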;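 active means both duplicates at 50% or more, or one of them with a favoured structure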;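 further: 0% = mean of negative control wells and 100% = mean of positive control wells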
MgrA DNA FP: alters Staphylococcus aureus MgrA binding to DNA; fluorescence polarization; inhibition, %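 (about 10 µg/mL by stock and volumes)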; 0.13% of 84,000 active;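 active means above 50% in either of two replicates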;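 further: 0% = protein plus DNA without compound and 100% = DNA alone without protein; higher means less MgrA bound to DNA so lower polarization; one replicate is shown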
* = called active by the depositor; x = no result given; & = joins results of further samples. Some of the compounds tested; rates above refer to the full screens.

no.	Structure	S aureus helic	MgrA DNA FP
1	CC(C)(C)C1CCc2nc(N)sc2C1 (stereo unspecified)	-2	-0.1
2	CN(C)c1ccc(C(O)c2cccs2)cc1 (stereo unspecified)	14	x
3	Cc1cc(C)cc(Nc2ccc(C(=O)O)cc2N)c1	1	x
4	CC(=O)Nc1ccc2c(c1)C1C=CCC1C(c1ccc(Cl)cc1Cl)N2 (stereo unspecified)	x	-1.5
5	c1csc(-c2cn3c(n2)CCC3)c1	11	x
6	O=C1NC(=O)C(C2(O)C(=O)Nc3c(Cl)cc(Cl)cc32)C(=O)N1 (stereo unspecified)	10	x
7	NC(=O)CSc1ncnc2ccccc12	17	x
8	Cn1c(=O)n(C)c2cc(S(=O)(=O)NCCC(=O)O)ccc21	16	0.4
9	O=C(CSc1ccc(Cl)cc1)NC(=O)NC1CCCC1	3	x
10	COC(=O)CC1C(=O)NCCN1c1ncnc2sccc12 (stereo unspecified)	-15	x
11	N#CC(C(=O)Nc1ccccc1Cl)=C1CCCC1	-10	x
12	Fc1ccc(N2CCN(CC3CCCCC3)CC2)cc1	13	-0.3
13	CCOC(=O)c1c[nH]c2c(F)ccc(F)c2c1=O	x	-1.5
14	Cc1ccc(S(=O)(=O)N2CCc3ccccc3C2CC(=O)OCC(N)=O)cc1 (stereo unspecified)	11	x
15	CC(C)(C)C(=O)C[n+]1ccccc1	-12	0.9
16	CCC1CC(c2nc3ccccc3s2)=C(N)O1 (stereo unspecified)	-46	x
17	CCOCCc1nnc(NC(=O)c2cccs2)s1	1	-3.5
18	Cn1c(SCCC#N)nnc1-c1cccc(Cl)c1	8	-1.3
19	O=C(NCC(c1cccs1)N1CCOCC1)c1ccc(NS(=O)(=O)c2cccs2)cc1 (stereo unspecified)	-12	x
20	Cc1ccc(NC(=O)CN2C(=O)S/C(=C\c3cccc(O)c3)C2=O)cc1	9	5.5
21	COc1ccc(S(=O)(=O)N(Cc2cc3c(C)cc(C)cc3[nH]c2=O)CC2COCCO2)cc1 (stereo unspecified)	7	-0.5
22	C=CCn1c(C)cc(C(=O)CSc2nc(C)cc(C(F)(F)F)c2C#N)c1C	-232	x
23	O=C(CN(c1ccc2c(c1)OCCO2)S(=O)(=O)c1ccccc1)Nc1ccc(S(=O)(=O)N2CCOCC2)cc1	3	0.8
24	CCn1cc(C2=NC(C(C)C)CO2)c2ccccc21 (stereo unspecified)	2	1.0
25	CC(C)(C#N)NC1CC1	21	x
26	CN(CCNc1ccc2nnc(-c3ccccc3)n2n1)C1CCCCC1	3	x
27	O=C(CSc1nnc2ccccn12)Nc1ccccc1	-2	x
28	CC1=C(C)CC2C(=O)N(c3ccc(N(C)C)cc3)C(=O)C2C1 (stereo unspecified)	-6	1.4
29	c1ccc(CSc2nnc3c(n2)OC(c2ccncc2)Nc2ccccc2-3)cc1 (stereo unspecified)	1	x
30	Cc1cccc(-c2noc(CCC(=O)N(C)C)n2)c1	-15	x
31	Cc1cc(C)nc(N2CCCC(C)C2)n1 (stereo unspecified)	12	-2.2
32	CC1c2nc3ccccc3n2C(CC(=O)NCc2ccccn2)C(=O)N1Cc1ccccc1 (stereo unspecified)	0	x
33	CN(C)c1ccc(C(=O)OCC(=O)c2ccccc2Cl)cc1	5	0.8
34	COc1ccc2[nH]c3c(c2c1)CCn1c-3nc2ccccc2c1=O	8	-1.0
35	CCC(=O)Nc1cc(F)ccc1C	x	-3.6
36	Cc1cc(C(=O)/C(C#N)=C/Nc2ccc(Cl)cc2)c(C(F)(F)F)o1	-29	x
37	Cn1nc(C(=O)Nc2cccnc2)c2ccccc2c1=O	14	x
38	COc1ccc(-c2cc(C(F)(F)F)nc(SCCC(=O)NCCc3ccccc3)n2)cc1	-4	-0.5
39	O=C1CCSCC1	3	x
40	c1ccc(-c2nccnc2-c2ccccc2)cc1	x	-1.0
41	C[C@@H](C(=O)Nc1ccc(S(=O)(=O)N2CCCC2)cc1)N1C(=O)C2CC=CCC2C1=O (stereo partly specified)	-11	x
42	O=C(Nc1nccs1)c1cccc([N+](=O)[O-])c1	x	2.0
43	O=C(O)C(O)C(O)c1ccccc1 (stereo unspecified)	-17	x
44	O=C(CSCc1ccc(C(=O)O)cc1)Nc1ccccc1	9	0.3
45	Cc1ccc(OCc2nc(C#N)c(N(C)C)o2)cc1	11	7.8
46	O=C(CCCc1nc(-c2ccccc2Cl)no1)Nc1ccccc1C(F)(F)F	-5	x
47	CCC1(c2ccccc2)C(N)=Nc2ccccc21 (stereo unspecified)	x	2.7
48	CCN(c1ccccc1)S(=O)(=O)c1ccc2[nH]cc(C(=O)NCCC3=CCCCC3)c(=O)c2c1	3	1.2
49	Cc1cccc(S(=O)(=O)N2CCSC2c2ccccc2)c1 (stereo unspecified)	13	-2.3
50	COCCNC(=O)C12CC3CCC(CC(C3)C1)C2	-15	x
51	CCC(CO)NCc1ccc2c(c1)c1ccccc1n2CC (stereo unspecified)	15	-7.5
52	O=C(SCC(=O)N1CCOCC1)c1ccccc1	-17	0.7
53	CC1CN(CC(=O)NC(=O)NCc2ccco2)CC(C)O1 (stereo unspecified)	13	x
54	O=C(Cn1sc2ccccc2c1=O)NCc1ccccc1	-3	1.4
55	CN(C)/C=N/S(=O)(=O)c1ccccc1	x	-1.8
56	Cc1cccc(NC2=NC(CO)(CO)CS2)c1	x	-0.3

Following part
no.	Structure	S aureus helic	MgrA DNA FP
57	Cc1nc2ccccc2n1C1CC(=O)N(c2ccc(F)cc2)C1=O (stereo unspecified)	x	2.0
58	CNC(=S)NNc1nncc2ccccc12	8	7.9
59	CS(=O)(=O)NN1C(=O)c2ccccc2NC12CCCC2	0	0.5
60	COc1ccccc1NC(=S)N(C1CCCCC1)C(C)c1ccco1 (stereo unspecified)	2	-0.5
61	COC(=O)CSc1cc(C(F)(F)F)nc2ccccc12	x	1.8
62	O=C(Cc1ccccc1)Nc1ccc(-c2nnc3n2CCCCC3)cc1	-4	-1.8
63	N#Cc1nccnc1S(=O)(=O)c1cccs1	x	14
64	CCOC(=O)c1c(C)oc2nc(C)nc(N(C)c3cc(Cl)c(OC)cc3OC)c12	-20	x
65	Cc1ccc(-c2cc(-c3ccccc3)nc(NN)n2)cc1	13	2.2
66	CC1(C)Cc2cccc(C(=O)NCC3COc4ccccc4O3)c2O1 (stereo unspecified)	x	-2.3
67	CCOC(=O)Cc1c(C(=O)OCC)sc(N)c1C#N	x	0.5
68	O=c1ccc2cc([N+](=O)[O-])ccc2o1	x	-2.0
69	COC(=O)c1sc2ncn(N)c(=O)c2c1C	-6	x
70	CC(C)n1c(-c2cccs2)nc2ccccc21	5	x
71	NC(N)=Nc1ccc2c(c1)OCCO2	17	x
72	Cn1c(=O)c(C#N)cc2c(=O)n3ccccc3nc21	-56	x

Retrieved by compound from the list above:
no.	Structure	S aureus helic	MgrA DNA FP
71	NC(N)=Nc1ccc2c(c1)OCCO2	17	x
70	CC(C)n1c(-c2cccs2)nc2ccccc21	5	x
65	Cc1ccc(-c2cc(-c3ccccc3)nc(NN)n2)cc1	13	2.2
68	O=c1ccc2cc([N+](=O)[O-])ccc2o1	x	-2.0

(next part)
no.	Structure	S aureus helic	MgrA DNA FP
73	O=c1[nH]c2c(n(C3CCCCC3)c1=O)CCC2	16	x
74	Cc1ccc(/C(O)=C2\C(=O)C(=O)N(Cc3cccnc3)C2c2ccccn2)cc1 (stereo unspecified)	0	-0.3
75	OC(CSc1nc2ccccc2s1)C(F)(F)F (stereo unspecified)	x	0.2
76	CSc1nc2sc3c(c2c(=O)n1-c1ccccc1)CCN(C)C3	12	3.9
77	NC(=S)/N=N/Nc1ccc(Cl)cc1	-2	x
78	CN1C(=O)SC(CC(=O)O)C1=O (stereo unspecified)	-3	14
79	CC(C)N(C(=O)Cn1c(=O)oc2ccccc21)c1ccccc1	5	x
80	CCCN(CCC)C(=O)Cn1c(=O)n(-c2ccc(Cl)cc2)c(=O)c2c3c(sc21)CCC3	9	0.9
81	O=C(Oc1ccccc1)N1CCCCC1	9	x
82	CN(Cc1ccc(C#N)cc1)S(=O)(=O)/C=C/c1ccccc1	-12	x
83	Cc1onc(-c2c(Cl)cccc2Cl)c1C(=O)c1ccc(F)cc1	x	1.9
84	Cc1ccc(Cn2nc(C)c(/C=N/NC(=O)c3ccc4c(c3)OCO4)c2C)cc1	4	x
85	COc1ccccc1NC(=O)COC(=O)C1CC2CCCC(C1)C2=O (stereo unspecified)	2	x
86	O=C(OCc1ccccc1)C1CC2C=CC1C2 (stereo unspecified)	7	-0.5
87	Cc1ccc2nc(CN3CCN(C/C=C/c4ccccc4)CC3)cn2c1	-14	x
88	COc1ccc2c(c1OC)C(=O)OC2NN(C)c1cccc(F)c1C#N (stereo unspecified)	x	-2.4

Profiles, quoted from the list. Values in the order: S aureus helic	MgrA DNA FP
Cc1onc(-c2c(Cl)cccc2Cl)c1C(=O)c1ccc(F)cc1 as listed: x	1.9
CN(Cc1ccc(C#N)cc1)S(=O)(=O)/C=C/c1ccccc1 as listed: -12	x
Cc1ccc(Cn2nc(C)c(/C=N/NC(=O)c3ccc4c(c3)OCO4)c2C)cc1 as listed: 4	x
Cc1ccc2nc(CN3CCN(C/C=C/c4ccccc4)CC3)cn2c1 as listed: -14	x
O=C(OCc1ccccc1)C1CC2C=CC1C2 (stereo unspecified) as listed: 7	-0.5

Continued.
no.	Structure	S aureus helic	MgrA DNA FP
89	Cc1ccc(NC(=O)c2ccccc2O)cc1	8	1.1
90	CCCc1c(C(=O)N2CC(C)OC(C)C2)cnn1-c1ccccc1 (stereo unspecified)	x	1.6
91	Cc1nc(N)sc1N=Nc1cccc2ccccc12	2	x
92	CC1(C)CC2(CCO1)OC(=O)CC2C(=O)NC1CCCCC1 (stereo unspecified)	-42	x
93	O=C(O)c1cc(N2CCNCC2)nc2ccccc12	15	-2.2
94	COc1ccc(-c2noc(N3CCC(C(=O)NCc4cccc(Cl)c4)CC3)n2)cc1	11	5.8
95	Fc1ccc(N=Cc2ccco2)c(F)c1F	-19	-2.8
96	O=C(CNC(=O)c1cccs1)OCc1ccc(Cl)cc1	1	x
97	COc1cc(CN(C)C(=O)c2cc(C)on2)ccc1OCc1ccccc1	7	x
98	O=C(COc1ccccc1)Nc1nc2c(s1)CCCC2	11	x
99	Cc1[nH]c2ccccc2c1SCCNC(=O)/C=C/c1ccc2c(c1)OCO2	16	0.2
100	CCC(C)[C@H](NC(=O)c1ccco1)C(=O)O (stereo partly specified)	x	-4.5
101	CO[C@H]1/C=C/O[C@@]2(C)Oc3c(C)c(O)c4c(O)c(c5c(c4c3C2=O)NC2(CCN(CC(C)C)CC2)N=5)=NC(=O)/C(C)=C\C=C\[C@H](C)[C@H](O)[C@@H](C)[C@@H](O)[C@@H](C)[C@H](OC(C)=O)[C@@H]1C	x	-0.9
102	CN1CCN(C(=O)c2oc3ccccc3c2NC(=O)c2ccccc2)CC1	8	x
103	CCN1CSC(=S)N(Cc2ccc(OC)cc2)C1	3	x
104	COC(=O)c1c(C(=O)OC)c2n(c1C)Cc1ccccc1C2	-9	2.1
105	CC(=O)Nc1ccc(NC(=O)c2ccccc2NC(=O)c2ccccc2)cc1	x	0.6
106	CCOC(=O)c1sc2ccccc2c1NC(=O)c1coc2ccccc2c1=O	-6&-4	x
107	O=c1cc(O)c2sc3nc(-c4ccccc4)ccc3c2[nH]1	9	3.3
108	O=S(=O)(NCCC1=CCCCC1)c1cccc2cccnc12	-9	-1.9
109	COc1ccc(OC)c(S(=O)(=O)NC2CCN(Cc3ccccc3)CC2)c1	0	-0.8
110	O=C(Nc1ccc(Cl)cc1)Nc1cc(C(=O)NCC2CCCO2)ccc1N1CC2CC(C1)c1cccc(=O)n1C2 (stereo unspecified)	11	x
111	C=CC(=O)NCc1ccccc1	24	-0.6
112	CCOc1ccccc1NC(=O)COC(=O)c1cc(Cl)cc(Cl)c1	4	3.6
113	Cc1cc(-c2ccccc2)n2ncc(-c3ccccc3)c2n1	2	-0.1
114	COc1ccc(S(=O)(=O)N2CCN(C)CC2)c(Cl)c1Cl	-2	0.1
115	COC(=O)c1cc(NC(=O)/C=C/C(=O)O)ccc1N1CCOCC1	x	-0.7
116	CC(Sc1nnnn1-c1ccccc1)C(=O)NC1CCCC1 (stereo unspecified)	-8	x
117	COc1ccc(N(CCCN2C(=O)c3cccc4cccc(c34)C2=O)C(=O)c2cccs2)cc1	x	0.5
118	O=C(NCCN1CCN(S(=O)(=O)c2ccc(Cl)cc2)CC1)C(=O)Nc1ccc(F)cc1	x	-0.2
119	Nc1cc(-c2ccccc2)nn1-c1ccccc1	-9	-3.0
120	CCC1Oc2ccc(C)cc2N(CC(=O)NCCCN2CCN(Cc3ccccc3)CC2)C1=O (stereo unspecified)	-1	x
121	C#CCn1c(COc2ccccc2)nc2ccccc21	-3	2.0
122	N#Cc1cc(C#N)c(SCc2cc3c(cc2Br)OCO3)nc1N	-29	x
123	CSc1nsc(SC)c1C(=O)Nc1nn(C)c2cccc(F)c12	x	0.0
124	CCCN(C1=NC2CS(=O)(=O)CC2S1)c1ccccc1F (stereo unspecified)	10	0.4
125	COc1cccc(NCc2nnc(SCc3nc4ccccc4o3)n2C2CCCCC2)c1	3	x
126	COc1ccc(NC(=O)c2ccc3c(=O)n(Cc4ccco4)c(=S)[nH]c3c2)c(OC)c1	8	x
127	CN1CCC(N(Cc2ccco2)C(=O)c2cc3sccc3n2Cc2ccccc2)CC1	5	-0.5
128	Cc1nc2cc(NC(=O)C3COc4ccccc4O3)ccc2s1 (stereo unspecified)	-22	x
129	O=C(c1ccc(F)cc1)c1c[nH]c(C(=O)NCc2cccs2)c1	x	-0.9
130	O=C(c1ccco1)N1CCN(C(=O)C2CCCN(S(=O)(=O)Cc3ccccc3)C2)CC1 (stereo unspecified)	7	-3.0
131	CN(C)S(=O)(=O)c1cccc(COC(=O)c2cccnc2N)c1	-7	x
